Biofilm kill mix = mixtures killing C. albicans biofilm | inhibition, % at 7.6 µM | C. albicans biofilm persisters + clotrimazole, fluorescence viability; primary screen in compound mixtures of four per well | 120,000 tested, 0.02% active;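 active = inhibition above 30.3% in the primary screen of four-compound pools, then above 30% when the compound was retested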;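 also: compounds exposed to preformed 24 h biofilms for 48 h; the number belongs to the whole pool; some results filed as inactive read as strong as hits; inactives centre near 12; 0% = biofilm with clotrimazole alone and 100% = kill control; retested singly at about 60 µM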
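Probe or stimulus – Clotrimazole 50 µg/mL co-treatment · System – C. albicans biofilms · Schedule – 24 h biofilm formation, then 48 h compound exposure, 37 °C · Evaluation – percent inhibition of biofilm viability · Technique – 2-h Alamar Blue fluorescence, 535/590 nm excitation/emission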
* marks the source's active call; other numbers are inactive results.

SMILES | Biofilm kill mix
C#CCOCCOCCOCCNc1nc(N2CCOCC2)nc(N2CCN(C(=O)[C@H]([C@@H](C)O)n3cc(CCCCN)nn3)CC2)n1 | 16.5
CN1CCN(C(=S)NC(=O)c2ccc(C(C)(C)C)cc2)CC1 | 5.5
O=[N+]([O-])c1cnc2ccccn12 | 18.9
COc1ccc(CSCC(=O)N/N=C/c2ccccc2O)cc1 | 7.0
CCOC(=O)C1(CC2CC2)CCN(Cc2cn[nH]c2-c2cccc(F)c2)CC1 | 8.3
O=C(COC(=O)c1cccc(F)c1)Nc1cccnc1Cl | 10.3
COc1ccc(CCNCC(=O)Nc2ccc(C)c(S(=O)(=O)N(C)C)c2)cc1OC | 5.8
O=C(COC(=O)c1cccnc1Cl)c1ccc2c(c1)OCCO2 | 4.4
Nc1nn(-c2ccccc2)c(N)c1N=Nc1ccccc1 | 6.0
COc1cc(COCC(O)CN2CCc3ccccc3C2)cc(OC)c1OC (stereo unspecified) | 7.5
CCOC(=O)c1ccc(N=C2C(=S)N(c3ccc(C(=O)OCC)cc3)C(=N)N2/N=C/c2ccccc2)cc1 | 5.1
Cc1cc(C)cc(NC(=O)N2c3ccccc3NC(=O)CC2C)c1 (stereo unspecified) | 14.0
Cc1nn(Cc2ccccc2)c(C)c1/C=N/NC(=O)c1cccnc1 | 8.1
CCCCNC(=S)N1CCN(Cc2ccc3c(c2)OCO3)CC1 | 6.1
O=C(NN=C1CCCCCCCCCCC1)c1cccc(S(=O)(=O)N2CCOCC2)c1 | 6.6
Cc1ccc(OCc2n[nH]c(=S)n2Cc2ccccc2)cc1 | 16.6
CCOc1ccc(Br)cc1S(=O)(=O)Nc1ccc(Cl)c(S(=O)(=O)N(C)C)c1 | 18.0
N#CCc1cc2ccc3cccc4ccc(c1)c2c34 | 15.1
Cc1ccc(Nc2nnc(SCc3ccccc3)s2)cc1 | -3.8
Cc1ccc2cc(CCNC(=O)c3cccs3)c(=O)[nH]c2c1 | 11.5
Cc1cccc(N(C(=O)CNC(=O)c2ccco2)C(C(=O)NCC2CCCO2)c2ccccc2)c1 (stereo unspecified) | 18.1
COc1ccc(/C=N/NC(=O)COc2ccc(Cl)cc2Cl)cc1Cn1nc(C)cc1C | 6.3
C#CCn1c(=NC(=O)c2sc3ccccc3c2Cl)sc2cc(S(N)(=O)=O)ccc21 | 21.6
CC(C)CC1C2C(=O)N(c3ccccc3)C(=O)C2ON1c1ccccc1 (stereo unspecified) | 18.6
O=C(O)Cc1ccc(NS(=O)(=O)c2c(Cl)cccc2Cl)cc1 | 28.1
c1ccc(-c2nc[nH]c2-c2ccccc2)cc1 | 5.1
COc1cc(/C=C/C(=O)c2ccc(F)cc2)cc(OC)c1OC | 10.5
CCOC(=O)/C(=N\Nc1ccccc1)P(=O)(c1ccccc1)c1ccccc1 | 25.0
CCOC(=O)N1CCN(c2nc3ccccc3n3cnnc23)CC1 | 31.4
Cc1noc2ncnc(N3CCN(c4cccc(Cl)c4)CC3)c12 | -1.6
O=C(O)[C@H](Cc1ccccc1)NC(=O)N1CCN(c2ccc(F)cc2)CC1 | 29.9
Fc1ccccc1NC(=S)Nc1cccc2cnccc12 | 9.0
CCOC(=O)c1c(SC)[nH]c2c(Cl)cccc2c1=O | 20.5
O=[N+]([O-])c1cccc2ccc(/C=C/c3cccc(Br)c3)nc12 | 19.6
C/C(=N/N1CCN(c2ccccn2)CC1)c1cccc([N+](=O)[O-])c1 | 18.1
FC(F)(F)c1ccccc1NC(=S)N/N=C1\CC2CC=CC12 (stereo unspecified) | 17.3
CCN1C(=O)CC2(C[N+]3(C)CCC2CC3)C1=O (stereo unspecified) | 9.9
CC(C)C(NS(=O)(=O)c1cccc(C(F)(F)F)c1)C(=O)O (stereo unspecified) | 9.3
Cc1c(C(=O)NCCN2C(=O)S/C(=C\c3cccs3)C2=O)cccc1[N+](=O)[O-] | 6.4
O=[N+]([O-])c1ccc(N2CCN(CCO)CC2)c2ncccc12 | 20.6
Cc1cccc2c1-c1sc(C(=O)Nc3ccccc3N3CCN(C)CC3)cc1CO2 | 9.9
Cc1nnc2sc(-c3ccc(NC(=O)CSc4ccc(Cl)cc4)cc3)nn12 | -6.5
CC(=O)NS(=O)(=O)c1ccc(NC(=O)CN2C(=O)C3C4C=CC(C4)C3C2=O)cc1 (stereo unspecified) | 11.8
Cn1c(=O)c2c(Nc3ccc(F)cc3)cc(=O)n(-c3ccccc3)c2n(C)c1=O | 13.9
CCN1C(=O)N/C(=C/c2ccc(C)o2)C1=O | 13.8
COCCN(Cc1cc2cc(C)c(C)cc2nc1Cl)C(=O)N1CCOCC1 | 3.2
COc1ccccc1N1C(=O)C2C3CC(c4ccccc4)C(C3)C2C1=O (stereo unspecified) | 17.3
COc1ccc(-c2[nH]ncc2CN(C)CCN2CCOCC2)cc1F | -10.5
C=CCN(c1ccc(C(=O)Nc2cccc([N+](=O)[O-])c2)cc1)S(C)(=O)=O | 11.6
CN(Cc1cccs1)C(=O)Cc1csc(-c2ccccc2)n1 | 18.1
New compounds follow.
SMILES | Biofilm kill mix
C/C(=N\NC(=O)c1cc(-c2ccccn2)nc2ccccc12)c1cccc([N+](=O)[O-])c1 | 12.3
CC(C)N1CCC(N2CCN(Cc3cc(F)ccc3-n3cccn3)CC2CCO)CC1 (stereo unspecified) | 28.1
CC(=O)c1cc(CN2CCN(C3CCN(C(C)C)CC3)C(CCO)C2)cs1 (stereo unspecified) | 10.0
Cc1ccc(CN2CCN(Cc3ccc(OC(C)C)cc3)CC2CCO)o1 (stereo unspecified) | 3.0
CC(C)(O)c1ccc2c(c1)CCC1C(C)(C(=O)O)CCCC21C (stereo unspecified) | 12.9
O=c1cc(O)nc(-c2ccccc2)s1 | -9.7
COCCn1c(=O)[nH]c(=O)c2c1nc(-c1ccc(-c3ccc(Cl)cc3[N+](=O)[O-])o1)n2Cc1ccccc1 | 11.3
CCn1ccnc1[C@@H]1C[C@H]2CN(Cc3ccccc3OC)C(=O)[C@]23CCCN13 | 19.5
CC(CCc1ccccc1)NC(=O)CN1C(=O)NC2(CCCCC2)C1=O (stereo unspecified) | 2.2
O=C(COc1ccccc1[N+](=O)[O-])Nc1ccccc1N1CCCC1 | 6.5
CCOc1ccc(/C=N/NC(=O)c2cc(-c3ccco3)nc3ccccc23)cc1 | 7.8
O=C(O)/C=C/c1cn(Cc2ccccc2)nc1-c1cccnc1 | 4.5
COc1cccc(CSc2nnnn2-c2ccc(O)cc2)c1 | 14.5
Cc1cccc(NC(=O)Cc2nnc(NC(=O)Nc3ccccc3F)s2)c1 | 2.3
O=C(O)c1ccc(Nc2nc3c(s2)CCCC3)cc1 | 5.2
CC1=NN(C(=O)CCc2ccccc2)C(O)(c2ccncc2)C1 (stereo unspecified) | 13.2
O=C(O)c1cnn(-c2nc(-c3cccc(F)c3)cs2)c1C(F)(F)F | 4.9
S=C1NCN(CCc2ccccc2)CN1 | 20.4
CC(=O)CNc1ccc(S(=O)(=O)N/N=C/c2ccccc2)cc1 | 11.3
Cc1cccc(/C=N/n2c(C)cc(C)c(C#N)c2=O)c1 | 14.5
COC(=O)C1(CCSC)NC(c2ccc(O)c(OC)c2)C2C(=O)N(c3ccc(C)cc3)C(=O)C21 (stereo unspecified) | 22.7
COc1cc2c(cc1OC)CN(c1nc(CN3CCOCC3)nc3sc4c(c13)CCCC4)CC2 | 3.0
CC(Oc1ccccc1)C(=O)N=Nc1c(O)[nH]c2ccc(Br)cc12 (stereo unspecified) | 17.8
CC(=O)c1cc2c(cc1N/C(=N/S(=O)(=O)c1ccc(C)cc1)c1ccccc1)OCO2 | 10.8
CC(C)S(=O)(=O)C/C(N)=N/OC(=O)c1cc(Cl)cc(Cl)c1 | 4.4
CC[n+]1c(-c2ccccc2)csc1Nc1c(C)n(C)n(-c2ccccc2)c1=O | 15.4
COc1ccc(C)cc1NC(=O)CN(C)S(=O)(=O)c1cc(C)ccc1OC | 19.2
Cn1c(=O)c2c(ncn2CC(=O)N/N=C/c2c[nH]c3ccccc23)n(C)c1=O | 17.2
S=C(NCc1ccc2[nH]c3c(c2c1)CCCC3)Nc1ccccc1Cl | 0.3
CCN(N=O)[C@@H](Cc1ccccc1)CN(N=O)[C@@H](Cc1ccccc1)CN(C)N=O | 11.1
CCC(=O)Nc1cccc(C(=O)c2ccc(C)c(C)c2)c1 | -1.8
COc1ccc(S(=O)(=O)NCCCCC(=O)O)cc1C(=O)O | 13.4
CC(C)(C)NC(=O)C(c1cccs1)N(CC1CCCO1)C(=O)c1ccc(-c2ccccc2)[nH]1 (stereo unspecified) | 15.8
C/C(=N\N(Cc1ccccc1)c1ccccc1)c1cccnc1 | 10.9
Cc1ccccc1NC(=O)C1(C)Cc2ccccc2C(=O)O1 (stereo unspecified) | 9.8
Cc1ccc(NC(=O)Cn2cnc3sc(C(=O)NCCN(C)C)c(C)c3c2=O)cc1Cl | 8.3
O=C(CC(Nc1ccccc1)c1ccccc1)C1CC1 (stereo unspecified) | 18.9
CCc1ccc(N2NC(=O)/C(=C/C=C/c3ccco3)C2=O)cc1 | 23.4
O=C(c1ccc2nc(-c3ccccc3)c(-c3ccccc3)nc2c1)N1CCCCC1 | 22.6
Cc1cc(NC(=O)CCCn2ccc([N+](=O)[O-])n2)n(Cc2ccc(F)cc2)n1 | 14.2
CCO[C@H]1OC(C(=O)NC2CC2)=C[C@@H](c2csc3ccccc23)[C@@H]1CCCO | 16.1
c1ccc(CSc2nnc3ccc(-c4ccncc4)nn23)nc1 | 3.0
Cc1ccc2c(c1)C=CC(C)(C)S2=O (stereo unspecified) | 8.9
Cc1nc(-c2ccc(S(=O)(=O)Oc3ccc(Cl)cc3Cl)s2)cs1 | 9.9
Cc1cc([N+](=O)[O-])ccc1NC(=O)C(C)[n+]1ccccc1 (stereo unspecified) | 11.5
CC(C)N1CCC(NC(=O)NC2CCCCC2)CC1 | 18.4
COc1cccc(/C=N/NC(=O)c2ccc(N(C)S(=O)(=O)c3ccccc3)cc2)c1OC | 8.1
Cc1noc(/C=C/Nc2ccc(F)cc2F)c1[N+](=O)[O-] | 9.5
COc1ccc(Cl)cc1NC(=S)Nc1cccc(C)c1 | 10.1
O=C(/C=C/c1ccc(-c2ccc(F)cc2)o1)N1CCCC1 | 8.7

Seven structures from above, sorted by count of non-hydrogen atoms, falling:
SMILES | Biofilm kill mix
COc1cccc(/C=N/NC(=O)c2ccc(N(C)S(=O)(=O)c3ccccc3)cc2)c1OC | 8.1
CCO[C@H]1OC(C(=O)NC2CC2)=C[C@@H](c2csc3ccccc23)[C@@H]1CCCO | 16.1
Cc1nc(-c2ccc(S(=O)(=O)Oc3ccc(Cl)cc3Cl)s2)cs1 | 9.9
Cc1cc([N+](=O)[O-])ccc1NC(=O)C(C)[n+]1ccccc1 (stereo unspecified) | 11.5
COc1ccc(Cl)cc1NC(=S)Nc1cccc(C)c1 | 10.1
CC(C)N1CCC(NC(=O)NC2CCCCC2)CC1 | 18.4
Cc1ccc2c(c1)C=CC(C)(C)S2=O (stereo unspecified) | 8.9

Other records:
SMILES | Biofilm kill mix
O=C(CSc1ncn[nH]1)Nc1cc(S(=O)(=O)N2CCCC2)ccc1Cl | 3.6
CCOC(=O)C1(Cc2ccccc2C)CCCN(C(=O)c2ccnn2C)C1 (stereo unspecified) | 6.2
CCc1cc(=O)oc2cc3occ(C)c3cc12 | 8.9
O=C(COC(=O)c1ccc(NS(=O)(=O)c2cccs2)cc1O)NC1CCCCC1 | 18.6
Cn1cccc1/C=C(\C#N)c1ccccc1 | 17.3
CCOc1ccc(N2C(=O)CC(N(Cc3ccco3)C(C)=O)C2=O)cc1 (stereo unspecified) | 23.4
O=C(COC(=O)c1cccc(S(=O)(=O)N2CCCC2)c1)NCc1ccccc1 | 10.4
CCCc1cc(=O)[nH]c(SCC(=O)c2c(C)[nH]c3ccccc23)n1 | 17.7
COCCNC(=S)N1CCN(C)CC1 | 13.9
CC(=Nc1ccccc1O)c1sc2ccccc2c1O | 25.5

The final 4 compounds of the section above come first, to join the parts:
SMILES | Biofilm kill mix
O=C(COC(=O)c1cccc(S(=O)(=O)N2CCCC2)c1)NCc1ccccc1 | 10.4
CCCc1cc(=O)[nH]c(SCC(=O)c2c(C)[nH]c3ccccc23)n1 | 17.7
COCCNC(=S)N1CCN(C)CC1 | 13.9
CC(=Nc1ccccc1O)c1sc2ccccc2c1O | 25.5
Cc1ccc(C)c(NC(=O)COc2cccc3c2CCN(Cc2ccccc2)C3=O)c1 | 12.6
Cn1c(=O)c2[nH]cnc2n(C)c1=O | 8.2
CCCCCC(=O)Nc1ccc(-c2csc(C)n2)cc1 | 10.3
COc1ccc(CCNC(=O)c2ccc(CNc3nc(=S)[nH]c4ccccc34)cc2)cc1OC | 17.3
COc1ccc(-c2nnc(SCc3nc4ccccc4c(=O)[nH]3)o2)cc1 | 12.6
Cc1cccc(COCC(Cc2ccccc2)N2CCN(C(=O)c3cccc(Cl)c3)CCC2=O)c1 (stereo unspecified) | 17.0
O=C(NC1CCCCC1)C(c1cc2c(cc1[N+](=O)[O-])OCO2)N1CCCCC1 (stereo unspecified) | 5.3
CN(Cc1cccnc1)Cc1cn(Cc2ccccc2)nc1-c1ccc2c(c1)OCO2 | 9.1
C=CCOc1c(/C=N\NC(N)=O)cccc1OC | 17.4
Cn1nnc2cc(C(=O)Nc3ccc(Cl)cc3)ccc21 | 17.6
Cc1ccc(OCC(=O)n2nc(C)cc2C)c(Br)c1 | 8.5
N#C/C(=C/c1ccc(F)cc1)C(N)=S | 10.6
COc1ccc(S(=O)(=O)NCc2cc(-c3ccccc3Cl)no2)cc1 | 13.4
CCOc1ccc(-n2ccnc2SCC(=O)N2CCCc3ccccc32)cc1 | 3.0
CCn1nc(C)c(/C=N/NC(=O)c2c[nH]c3ccccc23)c1C | 5.1
CC(C)NC(=O)C(=O)NCCCOC(C)C | 11.6
O=C(Nc1cccnc1)/C(N=Nc1c(Cl)cccc1Cl)=C(\O)c1ccccc1 | 6.5
CCc1nnc(NC(=O)Cc2ccc(OC)c(OC)c2)s1 | 5.6

Screens deposited in PubChem by PCMD.

Some of the compounds tested (hit frequency here may not be typical).
